RE007 growth inh = less growth of the S. pombe RE007 Vpr strain; S. pombe RE007 Vpr strain, BacTiter-Glo ATP luminescence, 24 h; control for the full effect not named in the record; Potency, µM (highest dose often 92.2 µM), inactives show at the top dose activity change, negative = less growth; 360,000 tested, 0.21% active; active = well fitted falling curve with a large enough effect; inconclusive = small, poorly fitted or top-dose-only effect; inactive = no such curve, though single readings can be large or run the other way;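 further: on the % scale 0 is the no-effect control and ±100 the full control effect; nearly all actives have a fitted effect of over 50% in size; the assay follows cell death caused by Vpr and the record does not say whether a fall means rescue or toxicity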
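Fission yeast RE007 carrying one integrated HIV-1 vpr copy, seeded at OD 0.01 in PMG+AL medium with 23 nL pinned compound. Grown 24 h at 30 degrees; viability read by BacTiter-Glo luminescence after 5 min.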
LASV entry inh = blocks Lassa virus binding to or entry into cells | Lassa virus pseudotype entry inhibition, cell reporter; control for the full effect not named in the record | Potency, µM (top dose mostly 37.9 µM), for the others: at the top dose activity change, negative = inhibition, usual class: inhibitors | 300,000 tested, 1.2% active; active means well fitted inhibition curve with a large enough effect; inconclusive means small, poorly fitted or top-dose-only effect, or effect the other way; inactive means flat fitted curve, though single readings scatter; tested in HEK293 cells; further: on the % scale 0 is the no-effect control and ±100 the full control effect; nearly all actives have a fitted effect of over 50% in size; luciferase read-out
NS1 function inh = blocks influenza NS1 protein function | AID 2326 | 270,000 tested, 0.4% active | Potency, µM (series often up to 46.1 µM), without a hit: at the top dose activity, positive = more growth | S. cerevisiae slowed by influenza A NS1, growth recovery by OD600; further: actives are rising curves; nearly all actives have a fitted effect of over 50% in size
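A cell-based growth assay was used: compounds that relieve NS1-induced slow growth of budding yeast raise OD600. Assay medium was yeast nitrogen base with ammonium sulphate and -URA supplement, pH 6.0, with 2% galactose.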
SARS PLpro yeast = blocks SARS-CoV papain-like protease in a yeast assay | S. cerevisiae expressing SARS-CoV PLpro, growth rescue; control for the full effect not named in the record | Potency, µM (series often up to 32.9 µM), inactives show top-dose activity, positive = growth rescue | 330,000 tested, 0.19% active | AID 485353; further: 0% is about no effect; nearly all actives have a fitted effect of over 55% in size; growth read by luminescence after 48 h
Cruzain noTriton = cruzain (T. cruzi) inhibition without detergent; P25779; purified cruzain, Z-FR-AMC fluorescence, no detergent; Potency, µM, for the others: max response, negative = inhibition, hits mostly inhibitors; 200,000 tested, 2.3% active; AID 1476; active means well fitted curve in the direction sought with a large enough effect; inconclusive means small, poorly fitted or top-dose-only effect, or another doubt; inactive means no such curve, though single readings can be large; an effect the other way counts as inactive or inconclusive;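 further: plate controls were enzyme without inhibitor for no effect and buffer without enzyme for full effect; nearly all actives have a fitted effect of over 40% in size; top concentration of the series not given in the record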
Target sequence (P25779 123-467 limits assumed): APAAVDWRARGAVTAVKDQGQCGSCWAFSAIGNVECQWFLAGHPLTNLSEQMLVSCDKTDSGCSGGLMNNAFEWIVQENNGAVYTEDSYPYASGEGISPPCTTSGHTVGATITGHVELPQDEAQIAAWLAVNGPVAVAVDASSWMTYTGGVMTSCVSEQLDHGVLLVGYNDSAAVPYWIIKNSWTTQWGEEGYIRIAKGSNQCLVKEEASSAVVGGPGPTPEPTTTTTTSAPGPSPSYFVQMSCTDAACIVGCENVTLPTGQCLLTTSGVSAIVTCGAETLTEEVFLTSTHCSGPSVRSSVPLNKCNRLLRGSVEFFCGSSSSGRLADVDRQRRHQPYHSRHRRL
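Detergent-free condition (0.00005% Triton X-100) in acetate buffer pH 5.5 with DTT. 1.5 nM enzyme and compound were pre-mixed 15 min, then 2 uM Z-FR-AMC substrate added; reaction progress from fluorescence change between first and third reads (60 s).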
2A StopGo = lowers the luciferase signal of an FMDV 2A StopGo reporter; human cells with a luciferase reporter of 2A StopGo recoding; control for the full effect not named in the record; Potency, µM (titrated, usually from 57.9 µM), without a hit: top-dose signal change, negative = less light; 410,000 tested, 1.2% active; active = well fitted falling curve with a large enough effect; inconclusive = small, poorly fitted or top-dose-only effect; inactive = no such curve, though single readings can be large or run the other way; tested in HEK293T cells; further: on the % scale 0 is the no-effect control and ±100 the full control effect; nearly all actives have a fitted effect of over 45% in size; luciferase light after 4 h
Cruzain Triton = blocks cruzain activity in presence of Triton detergent; 200,000 tested, 0.43% active; purified cruzain, Z-FR-AMC fluorescence, 0.01% Triton; Potency, µM, for the others: max response, negative = inhibition, most hits filed as inhibitors; P25779; active means well fitted curve in the direction sought with a large enough effect; inconclusive means small, poorly fitted or top-dose-only effect, or another doubt; inactive means no such curve, though single readings can be large; an effect the other way counts as inactive or inconclusive;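 further: plate controls were neutral wells for no effect and buffer without enzyme for full effect; nearly all actives have a fitted effect of over 40% in size; top concentration of the series not given in the record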
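Cysteine protease activity tested under reducing, mildly acidic conditions (100 mM sodium acetate pH 5.5, 5 mM DTT) plus 0.01% Triton X-100. Cruzain 1.5 nM; substrate Z-FR-AMC 2 uM; 15 min compound preincubation at room temperature.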
Marburg entry inh = Marburg virus entry inhibition. Marburg virus pseudotyped entry inhibition, cell reporter; control for the full effect not named in the record; about a third of the inactives were read at about 46 µM. Potency, µM (doses to about 37.8 µM), inactives show at the highest dose activity change, negative = inhibition, actives largely listed as inhibitors. 300,000 tested, 1.8% active. AID 540276; active = well fitted inhibition curve with a large enough effect; inconclusive = small, poorly fitted or top-dose-only effect, or effect the other way; inactive = flat fitted curve, though single readings scatter; tested in HEK293 cells; about a fifth of its hits are not listed in these tables; further: on the % scale 0 is the no-effect control and ±100 the full control effect; luciferase read-out
The depositor's hits bear a star; ? = inconclusive; · = no result given; & = joins results of further samples; [ ] = another dose, or the depositor's remark. Unless noted, the call rests on the fitted dose curve; in most records, active means well fitted rising curve with a large enough effect; inconclusive means small, poorly fitted or top-dose-only effect; inactive means no such curve, though single readings can be large or run the other way. Potency means the concentration at half of the fitted maximal effect.

SMILES	RE007 growth inh	LASV entry inh	NS1 function inh	SARS PLpro yeast	Cruzain noTriton	2A StopGo	Cruzain Triton	Marburg entry inh
Cc1ccccc1OCC(=O)NC(=S)Nc1cccc2cc(O)ccc12	-13%	·	-18%	-1%	·	?	·	·
Cc1occc1C(=O)N1CCN(S(C)(=O)=O)CC1	2%	-7%	3%	18%	13%	-5%	0.4%	9%
COc1ccc(-n2c(C)nc(N)c2C(=O)c2ccccc2)cc1	-6%	13%	-1%	0%	·	-19%	·	?
O=C(NNC(=O)C1CCN(Cc2ccccc2)CC1)c1cccc(Cl)c1	-18%	0%	-9%	3%	-3%	-24%	7.4%	?
CC(=O)Nc1cc(NC(C)=O)cc(-c2nc3ccccc3[nH]2)c1	2%	-1%	4%	-1%	-3%	40µM*	-2.5%	11%&11%[46.1 µM]
O=C(N/N=C/c1cc2cc3c(cc2nc1Cl)OCCO3)c1ccccc1O	1%	4%	26%	4%	?	-20%	-7.1%	7%
CC(=O)C1=C(C)NC(SCC(=O)c2cc(Cl)ccc2Cl)=C(C#N)C1c1ccco1 (stereo not given)	7%	?	15%	-1%	25µM*	0%	-18%	?
Cc1c(Cl)c([N+](=O)[O-])nn1CCCC(=O)NC(C)c1ccccc1 (stereo not given)	-21%	13%	-9%	-15%	8%	-5%	-3.0%	18%
CN(C)S(=O)(=O)c1cccc(C(=O)Nc2ccccc2N2CCCCC2)c1	-4%	?	-13%	3%	·	-24%	·	?
CCOC(=O)CSc1ncc(OC)c(Sc2ccc(OC)cc2)n1	12%	2%	-34%	-3%	7%	-19%	-2.0%	?
Cc1ccc(-c2nnn(CC(=O)N(CCO)C(C(=O)NC3CCCC3)c3ccc(F)cc3)n2)o1 (stereo not given)	-5%	2%	0%	1%	·	6%	·	1%[46.1 µM]
CC(C)OC(=O)Cn1c(-c2ccccc2)c(-c2ccccc2)nnc1=O	0%	·	-16%	-5%	·	-13%	·	·
COC(=O)c1ccc(NC(=S)N2CCN(Cc3cccc(C)c3)CC2)cc1	15%	3%	-64%	-4%	7%	5%	1.8%	-7%
O=C(COC(=O)C1CCC1)NC(=O)c1ccccc1	-4%	16%	·	5%	·	2%	·	0%
Cc1ccccc1OCCSc1nc2ccccc2n1CCC(=O)O	-9%	·	-3%	2%	·	15%	·	·
CC(NC(=O)CSc1ncccn1)c1ccc(Cl)cc1Cl (stereo not given)	12%	9%[46.1 µM]	·	0%	·	-2%	·	-2%[46.1 µM]
Nc1nc2ccccc2n1CCOc1ccc(F)cc1	0%	·	-5%	-5%	·	-24%	·	·
O=S(=O)(Nc1nccs1)c1cc(Cl)ccc1Cl	-6%	6%	?	-3%	-4%	8%	-0.4%	9%
COc1ccc(S(=O)(=O)Nc2c(NC3CCCCC3)c3ccccc3oc2=O)cc1	11%	·	-9%	-2%	·	-13%	·	·
CCOC(=O)c1c(C=O)c(C)n(Cc2ccc(C)cc2)c1C	-19%	?	-36%	-28%	-11%	?	0.9%	?
O=S(=O)(Nc1cccc(-c2ccc(N3CCOCC3)nn2)c1)c1ccc(F)c(C(F)(F)F)c1	·	6%[46.1 µM]	·	·	-6%	64%[activator]	-11%	·
O=S(=O)(c1ccc(S(=O)(=O)N2CCOCC2)cc1)N1CCCC1	-6%	-1%	2%	1%	·	-16%	·	-14%[46.1 µM]
CC(OC(=O)CCCN=C1NS(=O)(=O)c2ccccc21)C(=O)N(C)c1ccccc1 (stereo not given)	10%	11%	·	5%	·	-12%	·	20%
O=S(=O)(Nc1ncccc1O)c1ccc(Cl)cc1	9%	0%	-5%	0%	3%	-20%	4.2%	29%
COC(=O)c1ccc(COC(=O)[C@@H]2CC(O)CN2S(=O)(=O)c2ccccc2[N+](=O)[O-])cc1 (stereo not given in full)	-4%	-26%	·	-7%	·	-7%	·	18%
COCCCNCC(O)COc1cccc2[nH]c(C)cc12 (stereo not given)	9%	6%[46.1 µM]	·	0%	·	-10%	·	-2%[46.1 µM]
Cc1ccc(S(=O)(=O)N2CCC(C(=O)NCCCN3CCOCC3)CC2)cc1C	-3%	-11%	·	2%	·	-12%	·	10%[46.1 µM]
CCN(CC)C(=O)Cn1cc(S(=O)(=O)CC(=O)Nc2ccc(F)cc2F)c2ccccc21	2%	-5%	1%	7%	·	-2%	·	?
Cc1cccc(N2CCN(Cc3ccc([N+](=O)[O-])o3)CC2)c1C	4%	-12%[46.1 µM]	-14%	5%	·	-12%	·	?
CCCCS(=O)(=O)/C=C\C=C/S(=O)(=O)CCCC	8.9µM*	11µM*	-84%	-33%	0%	?	-20%	?
Cc1cc(C(=O)COc2ccccc2C(N)=O)c(C)n1C	-9%	-4%	·	1%	·	15%	·	-4%[46.1 µM]
CS(=O)(=O)Nc1ccccc1C(=O)NC1CC2CCC1C2 (stereo not given)	6%	20%	4%	0%	-7%	14%	5.4%	10%
COc1cccc(NC(=O)Cn2c(=O)n(CCCCC(=O)NCCc3ccccc3)c(=O)c3ccccc32)c1	·	9%[46.1 µM]	·	·	4%	-9%	-3.3%	-5%[46.1 µM]
COc1ccc(N2CCN(S(=O)(=O)CC34CCC(CC3=O)C4(C)C)CC2)cc1 (stereo not given)	-5%	·	9%	2%	·	-5%	·	·
Cc1ccc(S(=O)(=O)C(C#N)c2nc3ccccc3nc2N2CCCCC2)cc1 (stereo not given)	·	·	-2%	-1%	-7%	·	-13%	·
Cc1c(C)n(Cc2ccccc2)c2ccc(C(=O)N3CCN(c4ccccc4)CC3)cc12	·	4%[46.1 µM]	·	·	?	-1%	-1.7%	·
Cc1cc(OCC(=O)NCC2(N3CCN(C)CC3)CCCCC2)cc(C)c1Cl	·	-24%[46.1 µM]	·	·	5%	-4%	3.9%	?
Cc1ccc(N2CCN(C(=O)c3c(C)oc4ncnc(N5CCOCC5)c34)CC2)c(C)c1	·	0%[46.1 µM]	·	·	6%	-15%	0.0%	·
Cc1cc(C(=O)Cn2cc([N+](=O)[O-])ccc2=O)c(C)n1CC1CCCO1 (stereo not given)	7%	?	·	-3%	·	1%	·	-8%
CC1CCCC(C)N1C(=O)c1ccc2c(c1)S(=O)(=O)c1ccccc1C2=O (stereo not given)	-2%	?	5%	-50%	·	-2%	·	1%[46.1 µM]
CCOc1ccc(S(=O)(=O)N2CCC(C(=O)N3CCOCC3)CC2)cc1Cl	9%	21%	2%	-1%	·	-7%	·	-5%
Nc1ccccc1-c1nnc(-c2ccccc2N)n1N	-5%	?	1%	-1%	·	21%	·	?
CCn1c(CN2CCN(C)CC2)nc2cc(NC(=O)c3ccc([N+](=O)[O-])cc3)ccc21	·	-13%[46.1 µM]	·	·	4%	-10%	-2.1%	7%[46.1 µM]
CCN(CC)S(=O)(=O)c1ccc(NC(=O)[C@H](CSCc2ccccc2)N2Cc3ccccc3C2=O)cc1	·	-3%[46.1 µM]	·	·	?	-12%	0.5%	?
Cc1nc(-c2ccc([N+](=O)[O-])cc2)sc1C(=O)O	-24%	20%	6%	0%	·	31%[activator]	·	15%[46.1 µM]
COc1cc(N(C)C)c([N+](=O)[O-])cc1C(=O)N1CCOCC1	6%	-1%	1%	0%	·	-13%	·	18%[46.1 µM]
COc1ccc(/C=C/c2onc(C)c2S(=O)(=O)N2CCC(C(=O)N3CCCCC3)CC2)cc1	·	-26%[46.1 µM]	·	·	?	-21%	-2.9%	·
CCOC(=O)N1CCN(c2ccc(S(=O)(=O)N3CCOCC3)cc2[N+](=O)[O-])CC1	2%	20%	·	-2%	·	-16%	·	-7%
O=C(CCn1c(=O)c2ccccc2n(CC(=O)N2CCN(c3ccccc3)CC2)c1=O)NCc1ccco1	-5%	-10%	·	2%	·	1%	·	-29%[46.1 µM]
Cc1ccccc1C(=O)Nc1c(C)[nH]c(=O)[nH]c1=O	5%	·	5%	1%	·	-3%	·	·
Next part
SMILES	RE007 growth inh	LASV entry inh	NS1 function inh	SARS PLpro yeast	Cruzain noTriton	2A StopGo	Cruzain Triton	Marburg entry inh
COc1ccc(NC(=O)CN(C)C(=O)CCc2ccccc2)cc1	-11%	8%	9%	-1%	·	20%	·	0%[46.1 µM]
Cc1cc(C(=O)Nc2c(C)n(C)n(-c3ccccc3)c2=O)cs1	-2%	13%	8%	3%	-7%	5%	-0.9%	-5%
O=S(=O)(NCc1ccccn1)c1ccc(Cl)s1	-2%	14%	2%	-1%	·	44%[activator]	·	-8%[46.1 µM]
Cc1ccccc1NC(=O)c1csc2c1CCCC2	-2%	25%	-10%	-16%	-25%	46%[activator]	-3.2%	?
COC(=O)C1=C(c2ccccc2OCc2ccccc2)C[C@@H]2CC[C@H]1N2C(=O)NCc1ccc(C(F)(F)F)cc1	-9%	·	·	2%	·	-18%	·	2%
CN(CCc1ccccn1)C(=O)CCC1CCCN(C(=O)c2c(F)ccc(F)c2F)C1 (stereo not given)	-2%	-1%	3%	0%	·	-22%	·	13%
CCN(CC)CCNS(=O)(=O)c1ccc(OC)c(Br)c1	16%	-13%	-15%	-12%	-2%	12%	11%	0%
CN(c1ccccc1)S(=O)(=O)c1ccc(C(=O)NCc2cccs2)cc1	5%	·	-15%	1%	·	-3%	·	·
Nc1ccc(S(=O)(=O)Nc2nccs2)cc1	2%	·	·	·	-7%&1%&-3%	9%&16%	5.9%&1.4%&-1.5%	·
Cc1ccc(N(C)C(=O)c2sc3nc4n(c(=O)c3c2C)CCCC4)cc1C	·	7%[46.1 µM]	·	·	9%	-23%	-8.2%	·
Cc1ccc(S(=O)(=O)N2CCOCC2)cc1NC(=O)c1cc2c(s1)CCC2	2%	3%	5%	-4%	9%	-21%	-6.2%	-25%
CCOc1ccc(CCNS(=O)(=O)c2ccc3c(c2)NC(=O)CO3)cc1OCC	7%	·	-13%	-3%	·	-19%	·	·
CCn1c(N2CCN(S(=O)(=O)c3ccccc3C(F)(F)F)CC2)nc2ccccc21	-3%	?	-63%	-4%	11%	?	1.3%	-19%&-19%
